Assay outcomes from PubChem BioAssay.
Rango-impB inh – Rango-importin beta binding inhibition; Rango CFP/YFP FRET sensor + importin beta, 45 min; Q14974; AID 540263; Potency, µM (series often up to 92.2 µM), inactives show top-dose inhibition of complex formation; 0.031% of 340,000 active; active = rising FRET ratio curve, often small or poorly fitted; inconclusive = mostly compound fluorescence or quenching in the first reads; inactive = flat curves in all reads;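 further: potency means the concentration at half of the fitted maximal effect; 0% = DMSO wells and 100% = buffer wells lacking importin beta; nearly all actives have a fitted effect of over 15% in size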
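Inhibition scored from the CFP 486 nm/YFP 530 nm FRET ratio 45 min after adding 0.125 microM importin beta to 50 nM Rango biosensor preincubated 5 min with compound (room temperature, PBS with DTT, Tween-20, BSA). No-importin wells as positive control.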
miR-21 FLuc – miR-21 reporter, rising signal | HeLa miR-21 FLuc reporter, luciferase, 48 h | Potency, µM (series often up to 38.3 µM), without a hit: at the top dose reporter change, positive = more light | 340,000 tested, under 10 active; active = well fitted rising curve with a large enough effect; inconclusive = small, poorly fitted or top-dose-only effect; inactive = no such curve, though single readings can be large or run the other way;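 further: % of control where 0% means no effect; miR-21 action dims this reporter so a rising signal means less miR-21 action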
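Luminescence from a firefly luciferase reporter carrying a miR-21 binding site downstream, stably expressed under a CMV promoter in HeLa cells that make miR-21 endogenously, reports miRNA modulation after 48 h compound exposure up to approximately 40uM final.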
GLA inh pH 4.5 – blocks human alpha-galactosidase A at pH 4.5; activity change, negative = inhibition, % at 105 µM; purified enzyme, 4-MU-alpha-Gal fluorescence, pH 4.5; 230,000 tested, under 10 active; P06280; inconclusive = small, poorly fitted or top-dose-only inhibition, or a rising curve; inactive = flat fitted curve, though single readings scatter; no compound was filed as active;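 further: 0% = full activity with enzyme and -100% = basal without enzyme; dose as in the result columns while the protocol names 77 µM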
Target sequence (P06280 whole entry, looked up): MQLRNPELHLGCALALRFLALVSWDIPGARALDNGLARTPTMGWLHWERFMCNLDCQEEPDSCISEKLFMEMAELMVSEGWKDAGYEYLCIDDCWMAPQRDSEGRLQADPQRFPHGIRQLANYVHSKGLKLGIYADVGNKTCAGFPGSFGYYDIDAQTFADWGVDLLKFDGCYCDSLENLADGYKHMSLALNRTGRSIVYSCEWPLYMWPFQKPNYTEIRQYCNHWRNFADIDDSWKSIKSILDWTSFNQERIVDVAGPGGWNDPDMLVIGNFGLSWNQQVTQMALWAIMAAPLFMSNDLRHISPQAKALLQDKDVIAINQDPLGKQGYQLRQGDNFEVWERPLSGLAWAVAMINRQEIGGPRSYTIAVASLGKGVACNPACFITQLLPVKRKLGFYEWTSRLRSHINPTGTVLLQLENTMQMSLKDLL
Rango dissoc inh – inhibition of RanGTP-driven Rango-importin beta dissociation; O95149+P62826; Biochemical FRET Rango-importin beta, RanGTP-induced dissociation; Potency, µM (titrated, usually from 46.1 µM), for the others: at the top dose activity change, negative = inhibition; 0.071% of 340,000 active; active means falling FRET ratio curve, often poorly fitted, with flat reads before Ran was added; inconclusive means other falling curves, or compound fluorescence or quenching; inactive means flat or rising ratio curve;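 further: potency means the concentration at half of the fitted maximal effect; % of control where 0% means no effect; nearly all actives have a fitted effect of over 45% in size; -100% = wells without RanGTP and RCC1; the record marks most hits as doubtful in a second field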
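Compounds sat 5 min at room temperature with 0.1 uM Rango biosensor plus 0.25 uM importin beta, then FRET pre-read. RanGTP-RCC1 (0.6 uM Ran, 2mM GTP, 0.2 uM RCC1) added for 45 min, and the CFP/YFP post-read measured blocked complex dissociation.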
* = called active by the depositor; ? = inconclusive; . = not tested or not shown; & = joins results of further samples; [ ] = another dose, or the depositor's remark. These rows are one share of the data; count on the stated rates, not on these rows.

Order of results: Rango dissoc inh	Rango-impB inh	miR-21 FLuc	GLA inh pH 4.5
- CCC1CCc2sc(C(=O)NCC3CCCO3)cc2C1 (stereo not drawn)
    87%	-0.2%	.	.
- CC1CCCN(CCCN2C(=O)C3C(C(=O)Nc4cccc(Cl)c4)C4C=CC3(O4)C2C(=O)NC2CCCCC2)C1 (stereo not drawn)
    1%	5.2%	0%	.
- CCC(=O)Nc1ccc(/C(C)=N\NS(=O)(=O)c2ccc(C)cc2)cc1
    -1%	0.6%	-9%	-1
- COc1cccc(C(=O)NC(C)c2cccc3ccccc23)c1OC (stereo not drawn)
    9%	-2.6%	22%	.
- Cc1ccc(N2C(=O)CCC2(C(N)=O)c2ccccc2)cc1 (stereo not drawn)
    5%	-0.6%	-4%	-20
- COc1cc(OC)cc(C(=O)NCC(C)NC(=O)c2cc(OC)cc(OC)c2)c1 (stereo not drawn)
    ?	5.1%	.	.
- Cc1ccc(Cn2nnc3c(=O)[nH]c(C4CCCN(C(=O)Nc5ccc(F)cc5)C4)nc32)cc1 (stereo not drawn)
    -16%	-1.0%	-13%	2
- COc1ccc(OC)c2sc(N(CCN(C)C)C(=O)c3cc(Cl)sc3Cl)nc12
    -1%	2.1%	-2%	-2
- Nc1ccc2nc(N)sc2c1
    -12%	1.4%	.	.
- Cc1ccc(NC(=O)C(=O)NCCCN2CCCC2=O)c(C)c1
    5%	2.8%	.	.
- O=[N+]([O-])c1cccc(C([O-])=C(C(=S)Nc2cccc3ccccc23)[n+]2ccccc2)c1
    -1%	0.6%	.	.
- CCN1C(=O)c2ccccc2S(=O)c2ccc(C(=O)N3CCOCC3)cc21 (stereo not drawn)
    2%	-0.1%	-8%	-4
- Cc1c(C)c2c(OCC(=O)N[C@@H](C(=O)O)c3ccccc3)cc3c(c2oc1=O)CCC(C)(C)O3
    15%	0.0%	-2%	.
- Cc1cccc(N=C2SC(C)CN2C(=O)CN2C(=O)NC3(CCCC3)C2=O)c1 (stereo not drawn)
    12%	1.2%	.	.
- Nc1nc(N2C(=O)C3CC=CCC3C2=O)nn1-c1ccccc1 (stereo not drawn)
    -12%	-0.6%	-2%	4
- COc1cc(OC)c2c(-c3ccccc3)cc(=O)oc2c1C(CCN1CCCC(C)C1)c1ccc(N(C)C)cc1 (stereo not drawn)
    1%	-1.0%	?	?
- Cn1c(CSc2nc3ccccc3s2)nc2ccccc21
    2%	1.1%	-61%	-1
- CCCCN(CCCC)S(=O)(=O)c1ccc2oc(C(=O)N3CCOCC3)c(C)c2c1
    1%	-1.0%	5%	-7
- O=C(NCC(c1cccs1)N1CCOCC1)c1cc2ccccc2o1 (stereo not drawn)
    5%	2.7%	-4%	0
- COc1cccc(C(C(=O)NC(C)(C)C)N(CC(C)C)C(=O)CCC(=O)Nc2cc(C)on2)c1OC (stereo not drawn)
    7%	-4.0%	-1%	6

New compounds follow
Order of results: Rango dissoc inh	Rango-impB inh	miR-21 FLuc	GLA inh pH 4.5
- O=C(NC1CCCCC1)N(Cc1ccccc1)Cc1ccco1
    -7%	0.1%	-3%	6
- CCn1c(NCc2ccccn2)nc2c1c(=O)n(C)c(=O)n2C
    -2%	-0.9%	-15%	5
- COc1ccc(C(=O)CSc2n[nH]c(-c3ccncc3)n2)cc1[N+](=O)[O-]
    -2%	0.1%	-5%	4
- Cc1ccc2c(CN3CCOCC3)cc(=O)oc2c1C
    2%	?	-27%	.
- CCNc1nnc(CCn2nc(C)c(Br)c2C)s1
    ?	3.9%	-22%	5
- COc1ccc(Br)cc1CNC(=O)Cn1nc(C)n2cccc2c1=O
    ?	-0.4%	-1%	.
- CC(C)[C@H](NC(=O)C1CCN(C(=O)[C@@H]2CCCN2)CC1)C(=O)NCc1ccc(F)cc1
    8%	-1.0%	-3%	.
- Cc1ccn2nc(C(=O)OCC(=O)N(CC(C)C)C3CCS(=O)(=O)C3)nc2n1 (stereo not drawn)
    -5%	4.5%	.	.
- CCOC(=O)c1cc2c(ccn2-c2ccc(F)cc2)n1CC(=O)N(CC)CC
    1%	-4.9%	5%	-25
- O=C(Nc1ccc2c(c1)OCCO2)c1cccc2nc3ccccc3nc12
    10%	-0.6%	3%	-7
- CCN(C(=O)COC(=O)c1nc2nc(C)cc(C)n2n1)C1CCCCC1
    1%	-1.3%	.	.
- CC1Cc2cc(/C(O)=C3\C(=O)C(=O)N(Cc4cccnc4)C3c3ccccc3F)ccc2O1 (stereo not drawn)
    -5%	-0.5%	-3%	.
- COc1ccccc1N1CCN(S(=O)(=O)c2ccc(Cl)cc2)CC1
    -9%	-3.9%	0%	.
- O=C(CCCN1C(=O)/C(=C\c2cccs2)SC1=S)Nc1ccc(O)cc1
    -2%	-0.2%	4%	.
- COn1c(-c2ccccc2)nc2ncccc21
    -5%	?	-5%	.
- Cc1ccc(NC(=O)c2cc(-c3cccc(O)c3)on2)cc1C
    1%	2.3%	-53%	-7
- COC(=O)Cc1cc(=O)n2[nH]cnc2n1
    17%	2.7%	3%	-9
- CC1CCN(C(=O)C(Cc2ccccc2)NS(=O)(=O)c2ccc3c(c2)oc(=O)n3C)CC1 (stereo not drawn)
    9%	-0.9%	-3%	6
- COc1cc(/C=N/N=C(N)N)ccc1OCc1ccc(Cl)cc1
    8%	15%	?	0
- O=S(=O)(CCc1ccncc1)c1ccc(Cl)cc1
    14%	-0.2%	1%	.

Other entries follow.
Order of results: Rango dissoc inh	Rango-impB inh	miR-21 FLuc	GLA inh pH 4.5
- FC(F)(F)c1cccnc1-n1cncn1
    -8%	-1.2%	-1%	3
- CCOC(=O)/C=C/[C@H]1CCc2cccc(Cl)c2O1
    19%	3.4%	.	.
- CCOC(=O)c1c(NC(=O)Cn2cnc([N+](=O)[O-])n2)sc(C)c1C
    -2%	-0.1%	-3%	8
- Cc1nc(C(F)(F)F)c(C(=O)O)cc1-c1nc(-c2ccccc2)cs1
    ?	3.8%	-1%	.
- C/[N+]([O-])=C\C1C(=O)CC(C)(C)CC1=O
    9%	5.2%	-4%	-4
- O=C(CN1CCC(NC(=O)c2ccco2)CC1)Nc1ccccc1[N+](=O)[O-]
    .	.	-15%	0
- O=C(COC(=O)c1cccnc1Cl)NC(=O)NC1CCCCC1
    10%	-1.7%	.	.
- Nc1c(C=C2C=CC(=O)C=C2)c(=O)nc2sc(CC(=O)N3CCCCC3)nn12
    ?	?	-2%	.
- Cc1cccc(NC(=O)Nc2ccc(Br)cc2)n1
    ?	4.4%	-46%&-52%	.
- Cc1nnc(SCc2nc3ccccc3s2)n1N
    20%	1.7%	-69%	2
- Nc1cc(=O)[nH]c(SCC(=O)NC2CCCc3ccccc32)n1 (stereo not drawn)
    8%	1.9%	11%	11
- CC1=NN(c2nc(-c3ccc(C)cc3)cs2)C(=O)C1N=Nc1cccc(C)c1 (stereo not drawn)
    -3%	8.9%	-30%	-1
- O=C(Cn1cnc2c(nnn2-c2ccccc2)c1=O)NCCc1ccccc1
    ?	-4.7%	7%	-7
- Cn1c(/C=C/c2ccc(Cl)cc2)c([N+](=O)[O-])c(=O)n(C)c1=O
    6%	0.9%	?	.
- COC(=O)C1=CN(Cc2ccc(F)cc2)C=C(C(=O)OC)C1c1cc(OC)c(OC)c(OC)c1
    ?	?	1%	.
- Cc1ccc(S(=O)(=O)N2CCOC2CNC(=O)C(=O)NCc2ccccc2)cc1 (stereo not drawn)
    6%	-0.3%	0%	.
- CSc1ccc(S(=O)(=O)NC2CCCCCC2)cc1
    14%	2.9%	1%	-4
- N/C(=N\c1nc2ccccc2o1)NC(=O)c1cccc(Br)c1
    13%	-0.9%	1%	0
- COC(=O)Cn1c(CCS(=O)(=O)c2ccc(C)cc2)nc2ccccc21
    -5%	3.8%	1%	0
- CC(OC(=O)CCN=C1NS(=O)(=O)c2ccccc21)C(=O)N(C)C1CCCCC1 (stereo not drawn)
    4%	-0.5%	.	.

Part of the list above, showing only miR-21 FLuc and Rango dissoc inh.
structure	miR-21 FLuc	Rango dissoc inh
FC(F)(F)c1cccnc1-n1cncn1	-1%	-8%
CCOC(=O)/C=C/[C@H]1CCc2cccc(Cl)c2O1	.	19%
CCOC(=O)c1c(NC(=O)Cn2cnc([N+](=O)[O-])n2)sc(C)c1C	-3%	-2%

The results go on:
Order of results: Rango dissoc inh	Rango-impB inh	miR-21 FLuc	GLA inh pH 4.5
- COc1ccc(S(=O)(=O)N2CCOCC2)cc1NC(=O)COC(=O)c1ccc(C)s1
    15%	0.4%	-3%	-4
- CC(C)CNC(=S)NC(=O)c1csc([N+](=O)[O-])c1
    -5%	3.4%	-5%	-5
- CCc1ccccc1N(C)S(=O)(=O)c1ccc2[nH]cc(C(=O)N3CCc4ccccc43)c(=O)c2c1
    5%	-0.4%	5%	-4
- CN1CCN(C2CCN(c3ccc(Nc4nnc(Cl)c(Nc5ccccc5S(C)(=O)=O)n4)c(OC(CF)CF)c3)CC2)CC1
    -14%	1.2%	.	.
- CCOC(=O)C(=CNc1cccc(C)c1C)C(=O)OCC
    0%	4.5%	-4%	7
- O=S(=O)(NCC(c1cccnc1)N1CCN(c2ccc(F)cc2)CC1)c1cc(F)ccc1F (stereo not drawn)
    3%	1.4%	.	.
- COC(=O)c1ccc(SCc2ccccc2)nc1
    10%	1.5%	.	.
- Cc1ccc(-n2ncc3c(NCc4ccc5c(c4)OCO5)ncnc32)c(C)c1
    -5%	-3.3%	-9%	.
- COc1ccc(S(=O)(=O)n2nc(C)cc2C)cc1OC
    8%	-2.3%	-2%	.
- COc1ccc(OC)c(C2=NNC(=NCc3ccc4c(c3)OCO4)SC2)c1
    -18%	-2.5%	-13%	2
- O=C(Nc1ccc(F)cc1F)NC1CC1
    -10%	-0.7%	2%	3
- COCc1c(C(=O)OC)nnn1-c1ccccc1
    15%	1.1%	-5%	1
- CCOc1ccc(C(=S)N2CCOCC2)cc1OC
    -10%	1.4%	-6%	-4
- Cc1ccc(N(C(=O)c2ccc(S(=O)(=O)N(C)C)cc2)C2C=CS(=O)(=O)C2)cc1 (stereo not drawn)
    0%	0.8%	-1%	3
- Cc1sc2ncnc(NCCCO)c2c1C
    -6%	4.5%	-20%	-6
- COc1ccc(CNC(=O)COC(=O)c2ccc3ccccc3n2)cc1
    12%	5.0%	.	.
- O=C(CNC(=O)c1cccc(S(=O)(=O)N2CCc3ccccc32)c1)Nc1ccccc1Br
    -2%	-0.4%	.	.
- CC(C)Oc1ccc(C(CCN)C2CCCCC2)cc1 (stereo not drawn)
    9%	-3.4%	?	.
- CCOC(=O)C1(CCCc2ccccc2)CCN(S(C)(=O)=O)CC1
    -17%	?	10%	.
- Clc1ccc(-c2ccc(SCc3ccccn3)nn2)cc1
    2%	1.0%	-53%	-23

New compounds follow.
Order of results: Rango dissoc inh	Rango-impB inh	miR-21 FLuc	GLA inh pH 4.5
- COc1ccc(CNC(=O)CCNS(=O)(=O)c2cccc3nsnc23)cc1
    1%	3.0%	2%&0%	-3[21.1 µM]
- COc1ccc(N(C(=O)CCl)C(C(=O)NCCc2ccccc2)c2cccs2)cc1Cl (stereo not drawn)
    14%	-2.6%	?	-14
- Cc1ccc(NC(=O)COC(=O)Cn2cnc3c2c(=O)n(C)c(=O)n3C)cc1
    4%	-0.2%	.	.
- O=C(O)C1CCCCC1C(=O)Nc1cccc(Cl)c1Cl (stereo not drawn)
    1%	0.2%	0%	4
- O=C(Oc1ccc(C(=S)N2CCOCC2)cc1)c1ccccc1
    -1%	1.2%	-1%	-2[21.1 µM]
- Cc1ccc(/C=N/NC(=O)c2nnn(-c3nonc3N)c2CNc2ccccc2)cc1
    -12%	-0.9%	-5%	.
- CCN(CC)C(=O)C(=O)Nc1cccc(Br)c1
    0%	0.4%	-36%	2
- COc1cccc(CCNC(=O)CC2C(=O)NCCN2CC(C)(C)C)c1 (stereo not drawn)
    -18%	0.2%	-3%	7
- CCN1CCN(S(=O)(=O)c2ccc3ccccc3c2)CC1
    -24%	-2.0%	-2%	12
- CCC(=O)NCCCc1nc2ccccc2n1Cc1ccccc1F
    2%	3.1%	-1%	-5
- Cc1cc(C)nc(/N=C(\N)N(Cc2ccccc2)Cc2ccccc2)n1
    7%	-3.0%	15%	0
